Source: PubChem BioAssay (several laboratories)
Ecoli rRNA inh: inhibits bacterial ribosomal RNA function over humanized ribosomes; GFP signal change (wild-type ribosome), % (concentration not given with the values); E. coli WT GFP vs humanized-ribosome RFP mutants, fluorescence, 24 h; active compounds read low; DMSO median 0, no signal -100; 350,000 tested, 1.6% active;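 active means significant combined selectivity score with lowered wild-type GFP, culture density cut under 30%, mutant RFP and density less affected; inactive means any of these conditions unmet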; further: one replicate is shown; some compounds called inactive have numbers as strong as hits
T cruzi repl: T. cruzi replication inhibition | T. cruzi beta-gal in NIH3T3, luminescence, 90 h | 300,000 tested, 1.4% active | AID 1885 | inhibition, % (test concentration not listed);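 active means mean inhibition across valid replicates above about 55%, limit read from the data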;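 further: signal also drops with host cell toxicity which is not excluded here; 0% = plate median of DMSO wells and 100% = zero luminescence signal; higher percent means less beta-gal luminescence so fewer parasites; stock transfer was 50 nL into about 50 µL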
FGF22 binding: shifts melting point of recombinant human FGF22 | Q9HCT0 | recombinant FGF22 thermal shift, SYPRO orange fluorescence; percent of sucrose octasulfate shift, DMSO zero | calls only at 9.99 µM | 340,000 tested, 1.5% active | AID 651658;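 active means melting point raised past a set limit in the mean and every replicate; three in four hits are not shown here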
Target sequence (Q9HCT0 whole entry, looked up): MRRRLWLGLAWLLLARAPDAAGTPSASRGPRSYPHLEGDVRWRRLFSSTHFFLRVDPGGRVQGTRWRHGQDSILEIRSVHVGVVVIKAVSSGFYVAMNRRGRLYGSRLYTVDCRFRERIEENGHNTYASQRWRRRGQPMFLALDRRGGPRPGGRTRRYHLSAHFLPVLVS
UCH37 DUB inh: human UCH37 deubiquitinating enzyme inhibition | Q9Y5K5 | inhibition, % (concentration not given with the values) | 330,000 tested, 0.33% active | purified proteasome/UCH37, Ub-AMC cleavage fluorescence;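 active means mean of two replicates above 20%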;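 further: 0% = compound-free wells with enzyme and 100% = wells lacking proteasome; stock transfer was 100 nL into about 20 µL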
Target sequence (Q9Y5K5 whole entry, looked up): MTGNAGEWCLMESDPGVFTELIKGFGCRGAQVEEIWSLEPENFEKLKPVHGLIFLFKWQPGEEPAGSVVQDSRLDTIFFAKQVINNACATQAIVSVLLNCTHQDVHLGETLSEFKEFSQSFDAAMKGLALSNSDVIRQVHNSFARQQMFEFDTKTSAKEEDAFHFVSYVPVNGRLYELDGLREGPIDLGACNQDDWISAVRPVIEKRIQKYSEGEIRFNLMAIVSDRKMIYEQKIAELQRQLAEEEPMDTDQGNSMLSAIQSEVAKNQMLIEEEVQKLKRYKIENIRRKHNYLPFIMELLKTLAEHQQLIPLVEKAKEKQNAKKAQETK
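Assay system: Proteasome-bound UCH37. Buffer or medium: pH 7.4 Tris-HCl (50 mM) with ovalbumin, ATP-MgCl2, DTT. Incubation: 30 min preincubation with enzyme, 25 min cleavage at room temperature. Measured by: fluorescence, ex 355 nm, em 460 nm. Read-out basis: percent inhibition. Control set: wells without proteasome as full block, compound-free enzyme plus substrate as uninhibited.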
Beta cell apopt: blocks beta cell apoptosis. protection from apoptosis, % (concentration not given with the values). 300,000 tested, 0.8% active. INS-1E cytokine-induced death, ATP luminescence, 48 h; percent of positive-control rescue, neutral wells zero;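 active means all replicates at 75% or more, or half of them and the mean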;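 further: 0% = cytokine-treated negative control wells and 100% = positive control rescue; higher means more ATP so stronger rescue from cytokine killing; wells of about 40 µL received 100 nL stock; the first replicate is given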
Bfl-1 A1 inh: inhibitors of the anti-apoptotic protein A1, read as caspase activation | MEF A1-2A-BIM cells, Caspase-Glo 3/7 luminescence, 3 h; percent of clofoctol response, vehicle zero | caspase activation, % (concentration not given with the values) | 330,000 tested, 0.066% active;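 active means over half of replicate activation scores above 10%, or exactly half above 10 with the replicate mean above 10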;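 further: wells of about 30 µL received 50 nL stock; many hits fall short of the cut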
AF4-AF9 inh: inhibitors of human MLL-AF4/AF9 interaction; P42568; inhibition, % at 10 µM; AID 651704; AlphaScreen, biotin-AF4 peptide binding to FLAG-AF9; 350,000 tested, 0.47% active;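 active means every replicate reaching a set inhibition limit, whatever the replicate mean, cut at about 25% in these data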;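 further: 0% = plate neutral control median and 100% = total signal loss; the record names both 10 and 1 µM as test concentration; the first replicate is given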
Target sequence (P42568 whole entry, looked up): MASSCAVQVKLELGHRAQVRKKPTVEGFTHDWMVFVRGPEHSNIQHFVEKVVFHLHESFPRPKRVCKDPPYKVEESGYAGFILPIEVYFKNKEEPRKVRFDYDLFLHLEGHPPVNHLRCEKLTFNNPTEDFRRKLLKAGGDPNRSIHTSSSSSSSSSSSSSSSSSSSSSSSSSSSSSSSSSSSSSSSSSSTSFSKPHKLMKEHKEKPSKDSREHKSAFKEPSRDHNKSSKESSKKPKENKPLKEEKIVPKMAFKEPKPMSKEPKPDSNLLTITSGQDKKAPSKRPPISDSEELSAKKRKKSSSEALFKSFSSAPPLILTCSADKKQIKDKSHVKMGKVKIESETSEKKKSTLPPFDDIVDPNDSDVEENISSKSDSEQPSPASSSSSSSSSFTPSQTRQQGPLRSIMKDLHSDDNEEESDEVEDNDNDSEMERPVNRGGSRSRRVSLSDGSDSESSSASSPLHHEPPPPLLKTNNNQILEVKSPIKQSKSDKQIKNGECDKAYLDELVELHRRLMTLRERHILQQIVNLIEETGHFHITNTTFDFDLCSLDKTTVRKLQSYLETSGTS
Ecoli growth: E. coli growth inhibition; OD600 absorbance (test concentration not listed); 330,000 tested, 0.21% active; AID 1053175; Escherichia coli growth, OD600, 23 h; active compounds read low;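 active means OD600 absorbance below the run mean of sample wells minus 3.6 SD, in any replicate, cut at about 0.56 in these data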;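 further: stock transfer was 300 nL into about 60 µL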
Ecoli rRNA inh OD600: also measured in Ecoli rRNA inh; calls as there; OD600 change, %; measured here: OD600 growth;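 optical density of the mix in the first replicate; 0 = DMSO median and -100 = no signal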
Ecoli rRNA inh RFP: recorded beside Ecoli rRNA inh, whose call it bears; RFP signal change, %; measured here: RFP humanized mutant strains;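 first replicate; 0 = DMSO median and -100 = no signal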
An asterisk follows results filed as active; i = inactive; x = no result given. A portion of the library; rates above refer to the full screens.

canonical_smiles,Beta cell apopt,UCH37 DUB inh,FGF22 binding,AF4-AF9 inh,Ecoli growth,Ecoli rRNA inh,Ecoli rRNA inh RFP,Ecoli rRNA inh OD600,Bfl-1 A1 inh,T cruzi repl
O=C(C[C@H]1C/C=C\CC[C@H](Cc2ccc(F)cc2)C(=O)OC[C@H]2CCCN2C1=O)N[C@@H](CO)Cc1ccccc1,6,2.0,i,0.6,x,-38,5.0,-61,1.6,x
N/C(=N\OC(=O)c1ccc(Cl)cc1)c1nonc1N,-4,x,i,-2.8,x,5,0.8,12,-1.2,-6
Cc1scc(C(=O)NNC(=S)NC(C)c2ccccc2)c1C (centres undefined),6,6.8,i,1.5,0.68,-20*,3.4*,-10*,0.0,-1
O=C(CCN1CCc2ccccc2C1)Nc1ccccc1F,0,-0.7,x,x,0.69,x,x,x,-0.9,-1
CC1(COS(N)(=O)=O)CCCCC1,1,1.2,x,x,x,x,x,x,0.6,-5
Cc1cc(C)n(C(=O)CCNC(=O)c2ccccc2Cl)n1,3,6.4,x,x,0.7,x,x,x,0.6,-1
COc1cccc(/C=C/C(=O)OCC(=O)NC(=O)NC2CCCC2)c1,-4,x,i,-2.3,x,-29,-7.5,-41,-2.4,x
C=CCOC(=O)C1=C(C)NC(=O)NC1C1CC=CCC1 (centres undefined),-2,3.8,x,x,0.71,x,x,x,0.6,-11
CC(=O)c1cn(CC(=O)Nc2ccc(C)cc2C)c2ccccc12,51,-2.5,x,x,0.72,x,x,x,-0.6,8
COc1ccc(-c2csc(N3CCN(C(=O)c4ccco4)CC3)n2)cc1,2,5.7,i,-2.1,0.72,-15,0.0,-31,0.0,-15
CCOC(=O)c1sc2nc(C)nc(SCC(=O)N(C)C3CCS(=O)(=O)C3)c2c1C (centres undefined),-5,6.2,i,-1.6,0.69,10,0.7,11,-1.1,-3
Cc1cccc(-c2noc(CN(C(=O)c3ccc(Br)o3)C(C)C)n2)c1,-2,3.9,x,x,0.76,x,x,x,-1.4,9
C/C(=N\NC(=O)COc1c(C)cccc1C)c1cccs1,-2,x,i,11,x,17,3.6,25,0.5,0
CN(C(=O)c1ccc(OC2CCN(C(=O)c3cccnc3)CC2)cc1)C1CCCCC1,-2,3.1,i,5.7,0.68,-5,0.7,3,-0.1,1
CC(C)N1CCC(N2CCN(Cc3cnc(-c4ccccc4)s3)CC2CCO)CC1 (centres undefined),-2,2.3,i,1.4,0.73,16,-1.2,6,0.5,13
COc1cccc2c(=O)c(C(=O)NCCc3ccccc3)c[nH]c12,x,-61,i,3.9,0.66,-2,-1.1,-5,x,x
CCN(CC(=O)NCc1ccc2c(c1)OCO2)S(=O)(=O)c1ccc(F)cc1,-1,0.5,i,-0.3,0.69,0,-2.7,-1,-0.6,-2
O=C(NCc1ccncc1)C12CC3CC(CC(C3)C1)C2,-3,-1.5,x,x,0.72,x,x,x,0.8,-11
CC(C)OC(=O)CSc1nc(N)c(C#N)cc1C#N,0,-12,i,-1.8,0.69,-5,-12,-14,0.7,5
O=C1N[C@H](Cc2ccccc2)COC(=O)[C@H](Cc2ccc(F)cc2)CC/C=C/C[C@H]1CC(=O)N(CCO)Cc1ccccc1,-11,-2.3,i,1.3,x,3,3.0,2,-0.8,x
Cc1ccc2c(c1)N(C(=O)NC1CCCCC1)C(C)(C)CC2C (centres undefined),-11,1.1,i,2.6,0.64,11,-8.6,7,-0.5,0
O=C(NCCCC1CCCC1)C1CCC(=O)N(Cc2ccc(Cl)cc2)C1 (centres undefined),6,2.0,i,-1.4,0.7,x,x,x,0.0,12
CCOC(=O)N1CCN(C(=O)C(C)(C)Oc2ccc(Cl)cc2)CC1,-1,1.8,i,-3.9,0.72,-5,-2.2,-13,1.4,4
COc1ccc(NC(=O)C2CCN(S(=O)(=O)c3ccc(OC)c(OC)c3)CC2)cc1,-5,2.5,x,-9.3,0.67,-4,6.0,0,0.3,5
CN(Cc1ccco1)S(=O)(=O)c1nnc(NC(=O)c2ccccc2)s1,3,5.1,x,x,0.68,x,x,x,-4.0,-9

(further entries)
canonical_smiles,Beta cell apopt,UCH37 DUB inh,FGF22 binding,AF4-AF9 inh,Ecoli growth,Ecoli rRNA inh,Ecoli rRNA inh RFP,Ecoli rRNA inh OD600,Bfl-1 A1 inh,T cruzi repl
N#Cc1ccc(/C=C/C(=O)c2ccco2)cc1,-4,4.1,i,-6.1,x,0,-1.1,11,0.2,-11
NC(=O)c1cc2c3ccccc3ccn2c1-c1ccccc1,-7,4.6,i,3.5,0.64,6,9.9,8,1.1,-15
CC(C)Oc1nc(-c2ccccc2Cl)nc2ccccc12,2,4.9,i,-3.3,0.71,-18*,0.4*,-1.6*,0.1,-4
CC(C)(C)C(=O)COC(=O)c1ccc(N)c([N+](=O)[O-])c1,4,4.7,i,3.8,0.69,10,-0.4,15,0.3,-6
Cc1cc(NCCCN2CCOCC2)n2ncc(-c3ccccc3)c2n1,-7,-26,x,x,0.71,x,x,x,-0.5,29
COCCNC(=S)N/N=C(\C)c1ccc(OC(F)F)cc1,-1,x,i,-0.6,x,15,-2.7,8,-0.3,-7
NC1=NC(=Nc2ccc(Br)cc2)c2ccccc21,3,9.4,i,7.8,0.69,5,0.1,4,-0.3,-14
Cc1cc(C)nc(NCCC(=O)O)n1,-7,-1.4,i,-0.9,0.71,9,0.5,7,1.1,-9
COc1ccc2nc(Cl)c(C#N)cc2c1,1,-12,x,-0.5,0.71,18,2.9,10,-0.3,-5
Cc1ccc(-c2cc(C(=O)N/N=C/c3ccoc3)c3ccccc3n2)cc1,3,x,i,-0.1,x,1,-0.8,8,0.0,x
Cc1ccc(NC(=O)CN(C)C(=O)CSc2nc(C)cs2)cc1,-8,0.9,i,-2.8,0.69,-3,-6.4,2,0.8,-14
CCOC(=O)N1CCN(C(=O)c2cccc(NC(=O)c3ccco3)c2)CC1,4,2.7,x,x,0.77,x,x,x,0.2,-21
CCOC(=O)C1=C(C)N=c2s/c(=C/c3ccc(OCC(=O)O)cc3)c(=O)n2C1c1cc(OC)c(OC)c(OC)c1 (centres undefined),x,x,i,5.2,x,8,13,5,0.3,-4
CN(C)S(=O)(=O)c1ccc(NC(=O)COC(=O)C2COc3ccccc3O2)cc1 (centres undefined),x,2.1,i,-2.4,0.69,27,2.7,16,-0.4,-5
CCN(C(=O)COC(=O)/C=C/c1cnc2ccccc2n1)C1CCS(=O)(=O)C1 (centres undefined),-8,4.1,i,0.8,0.71,5,1.8,-8,0.1,-14
CCOC(=O)c1c(C)[nH]c(C)c1C(=O)CSc1nc2ccccc2c(=O)n1-c1ccccc1C,0,2.4,i,5.2,0.75,-11,14,-7,-1.2,32
O=C(Nc1nn(Cc2ccccc2F)cc1Br)c1cccs1,-1,0.3,x,x,0.7,x,x,x,0.4,6
O=S(=O)(Nc1ccc(-c2ccc(N3CCOCC3)nn2)cc1)c1cc(Cl)ccc1Cl,6,3.9,i,2.3,0.68,-34,3.4,-52,0.5,10
O=C(Nc1ccc(COc2ccccc2)cc1)Oc1ccccc1N1CCOCC1,1,2.6,i,-5.5,0.65,15,1.0,6,-0.3,1
CCn1c(SCc2ccc(C(=O)Nc3nccs3)cc2)nnc1-c1ccc(N)cc1,-12,7.3,x,x,0.71,x,x,x,0.3,2
COc1ccc(NC2CCCN(C(=O)CCc3cn[nH]c3)C2)cc1 (centres undefined),2,-0.5,i,-0.8,0.71,3,-0.5,6,0.3,7
CCCCC(=O)Nc1cc(C)c(NC(=O)c2cccs2)cn1,-11,-0.2,i,-1.1,0.65,-8,1.8,-13,-0.3,-4
O=C(/C=C/c1ccc([N+](=O)[O-])cc1)OCC(=O)c1ccc[nH]1,2,6.1,i,1.2,0.69,3,-0.8,8,-1.0,x
COc1ccccc1CNC(=O)C1CCN(c2ncnc3c2nc2n3CCCCC2)CC1,-2,4.7,i,-1.7,0.69,25,2.1,-3,0.0,10
O=C(CSc1ccccn1)NCc1ccc2c(c1)OCO2,-4,3.8,i,-3.3,0.72,4,1.3,2,0.2,-13

(more compounds)
canonical_smiles,Beta cell apopt,UCH37 DUB inh,FGF22 binding,AF4-AF9 inh,Ecoli growth,Ecoli rRNA inh,Ecoli rRNA inh RFP,Ecoli rRNA inh OD600,Bfl-1 A1 inh,T cruzi repl
Cc1ccc(CN2CC(C(=O)Nc3ccc(C)cn3)CC2=O)cc1 (centres undefined),-13,0.7,i,-0.1,0.65,7,2.4,12,2.8,-7
O=C(c1cnn2c1NC(c1ccc(Br)cc1)CC2C(F)(F)F)N1CCN2CCCC2C1 (centres undefined),6,3.4,i,5.3,0.66,-19,3.9,-16,0.3,29
Cc1ccc(NC(=O)CCC(=O)NNC(=O)c2cccc([N+](=O)[O-])c2)cc1C,-6,1.1,x,x,0.68,x,x,x,-0.8,-20
Cc1ccc(S(=O)(=O)NC(=O)c2cccc(Br)c2)cc1,1,3.7,i,-2.4,0.65,4,-5.9,-5,-0.2,-5
Cc1cc(NC(=O)C2CC(=O)N(c3ccc(F)cc3)C2)no1 (centres undefined),6,4.3,i,0.1,0.72,14,0.4,10,-0.2,-2
C[C@@H](NC(=O)c1nc[nH]c1C(=O)NCCCCCNC(=O)OC(C)(C)C)c1ccccc1,4,3.5,i,0.8,x,-30,31,-56,-0.4,x
O=C(COc1ccc(Cl)cc1Cl)NC(=O)N1CCCCC1,-1,1.5,x,x,0.67,x,x,x,-4.3,-6
COc1ccc(N2CC(C(=O)Nc3c(C(N)=O)oc4ccccc34)CC2=O)cc1 (centres undefined),x,5.4,x,-3.7,0.72,9,0.1,17,0.2,0
CN(C(=O)CN1C(=O)S/C(=C\c2ccc(F)cc2)C1=O)C1CCS(=O)(=O)C1 (centres undefined),-9,9.4,x,1.6,0.67,-4,-0.7,-7,0.4,-4

An excerpt from above in order of their number in Ecoli rRNA inh, low to high.
structure,Ecoli rRNA inh
NC1=NC(=Nc2ccc(Br)cc2)c2ccccc21,5
Cc1ccc(CN2CC(C(=O)Nc3ccc(C)cn3)CC2=O)cc1 (centres undefined),7
COc1ccc2nc(Cl)c(C#N)cc2c1,18

Reprinted at random: three compounds from above.
canonical_smiles,Beta cell apopt,UCH37 DUB inh,FGF22 binding,AF4-AF9 inh,Ecoli growth,Ecoli rRNA inh,Ecoli rRNA inh RFP,Ecoli rRNA inh OD600,Bfl-1 A1 inh,T cruzi repl
Cc1ccc(NC(=O)CCC(=O)NNC(=O)c2cccc([N+](=O)[O-])c2)cc1C,-6,1.1,x,x,0.68,x,x,x,-0.8,-20
COc1ccc(N2CC(C(=O)Nc3c(C(N)=O)oc4ccccc34)CC2=O)cc1 (centres undefined),x,5.4,x,-3.7,0.72,9,0.1,17,0.2,0
CN(C(=O)CN1C(=O)S/C(=C\c2ccc(F)cc2)C1=O)C1CCS(=O)(=O)C1 (centres undefined),-9,9.4,x,1.6,0.67,-4,-0.7,-7,0.4,-4
